Screening data (PubChem BioAssay)
D2 potentiator: positive allosteric modulators of human D2 dopamine receptor; P14416; AID 624464; DiscoveRx D2 beta-arrestin cells, luminescence, 90 min; 100% = 57 uM dopamine signal; actives 0.23% (n = 360,000); potentiation, % (test concentration not listed); active = potentiation of 50% or more; inconclusive = 30% to 50%; inactive = 30% or less;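 note: compound concentration not given in the record; tested on top of an EC20 dose of dopamine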
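PathHunter beta-arrestin assay in DiscoveRx D2 cells. Compounds were added with an EC20 of dopamine (50 nM final) for 90 min at 37 deg C. Luminescence was read 1 h after detection reagent, with 57 uM dopamine as the EC100 control.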
Six1-Eya2 blk: Six1/Eya2 interaction inhibition; AlphaScreen GST-Six1/His-Eya2 binding, biochemical; stronger effect = lower value; control for the full effect not named in the record; activity change, % (test concentration not listed); actives 0.56% (n = 360,000); in the data active = activity change below about -65%; inconclusive = about -30% to -65%; inactive = above about -30%; note: % is set by controls: 0 for no effect and ±100 for the full control effect; compound concentration not given in the record
Target sequence (O00167 whole entry, looked up): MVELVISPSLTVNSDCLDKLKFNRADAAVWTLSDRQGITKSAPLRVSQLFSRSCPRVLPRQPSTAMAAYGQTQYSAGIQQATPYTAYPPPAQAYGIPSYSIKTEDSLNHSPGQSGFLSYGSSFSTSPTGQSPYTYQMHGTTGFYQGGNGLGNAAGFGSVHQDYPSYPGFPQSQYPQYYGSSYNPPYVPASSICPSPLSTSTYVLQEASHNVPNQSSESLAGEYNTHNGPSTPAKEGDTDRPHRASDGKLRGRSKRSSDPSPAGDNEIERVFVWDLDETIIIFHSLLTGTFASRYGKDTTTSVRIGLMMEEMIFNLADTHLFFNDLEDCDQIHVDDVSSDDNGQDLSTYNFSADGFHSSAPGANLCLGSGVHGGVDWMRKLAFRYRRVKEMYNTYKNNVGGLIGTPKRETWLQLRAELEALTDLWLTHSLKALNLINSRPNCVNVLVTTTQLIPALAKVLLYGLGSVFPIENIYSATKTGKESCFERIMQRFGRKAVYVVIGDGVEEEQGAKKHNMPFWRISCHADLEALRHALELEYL
Target sequence (Q15475 whole entry, looked up): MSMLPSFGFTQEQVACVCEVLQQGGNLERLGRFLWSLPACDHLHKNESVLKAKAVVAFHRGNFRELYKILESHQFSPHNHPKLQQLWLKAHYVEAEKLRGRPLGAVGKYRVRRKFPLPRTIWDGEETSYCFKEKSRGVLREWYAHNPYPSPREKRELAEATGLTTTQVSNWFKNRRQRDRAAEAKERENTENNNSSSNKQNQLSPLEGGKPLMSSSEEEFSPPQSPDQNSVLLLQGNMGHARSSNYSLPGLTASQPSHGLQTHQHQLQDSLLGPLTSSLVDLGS
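AlphaScreen with GST-Six1 and His-Eya2 (5X mix: 250 nM and 500 nM), glutathione donor and nickel acceptor beads; buffer 50 mM Tris pH 8.0, 300 mM NaCl, 1 mM TCEP; 1 h at 37 C in the dark.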
TRPML1 ag: agonists of human TRPML1 channel | actives 0.12% (n = 410,000) | TRPML1-expressing cells, Ca2+ dye fluorescence, FDSS; host cell line not named in the record; reference of the full effect not given here | activation, % (concentration not given with the values) | Q9GZU1 | AID 624414; in the data active = activation above about 50%; inconclusive = about 30% to 50%; inactive = below about 30%; note: 0% is about no effect; the text of the record puts the active cut at 80%
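TRPML1-DL cells, Tet-induced overnight (~16 h, 37 degrees C), loaded 45-90 min at room temperature with Ca8 no-wash calcium dye plus quencher. FDSS fluorescence: 10 s baseline, compound pin-transfer, 110 s agonist read, then EC80 54-4 (4uM final) and 110 s antagonist read.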
PINK1 modulator: PINK1 expression modulation. PINK1 immunofluorescence, high-content cytometry, 24 h. Potency, µM (highest dose often 76.6 µM), for the others: top-dose activation (PINK1 increase), usual class: activators. actives 0.2% (n = 410,000); active = well fitted activation curve with a large enough effect; inconclusive = small, poorly fitted or top-dose-only effect; inactive = flat fitted curve, though single readings scatter; cell line not stated here;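 note: potency is the fitted concentration of half-maximal effect; % of control where 0% means no effect; nearly all actives have a fitted effect of over 65% in size; a mitochondrial uncoupler was the plate control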
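Stable cell line, 250 cells/well, 12 h attachment; compounds pinned at 5 concentrations, 24 h; CCCP control. Fixed with nuclear dye, primary antibodies 12 h at 10 degrees C, secondary plus cell stain; laser-scanning cytometer read.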
TRPML1 blocker: inhibitors of human TRPML1 channel; Q9GZU1; TRPML1-inducible cells, Ca2+ dye fluorescence, FDSS; stronger effect = lower value; inhibition of EC80 agonist-evoked calcium signal; activity change, negative = inhibition, % (concentration not given with the values); actives 0.02% (n = 390,000); AID 624415; in the data active means activity change below about -50%; inconclusive means about -30% to -50%; inactive means above about -30%;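 note: stimulus is agonist 54-4 at its EC80 concentration; % is set by controls: 0 for no effect and ±100 for the full control effect; compound concentration not given in the record; the text of the record puts the active cut at -80%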
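Tet-induced TRPML1-DL cells loaded with Ca8 no-wash calcium dye were read kinetically on FDSS. Compound addition was followed by EC80 agonist 54-4 (4 uM final); inhibition was read over 110 s.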
D2 ag: activates the human D2 dopamine receptor. P14416. DiscoveRx PathHunter D2 beta-arrestin, luminescence, 90 min; 100% = 57 uM dopamine signal. activation, % (concentration not given with the values). actives 0.084% (n = 360,000); in the data active = activation above about 40%; inconclusive = about 15% to 40%; inactive = below about 15%; note: compound concentration not given in the record; the text of the record calls up to 30% inactive
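DiscoveRx PathHunter D2 beta-arrestin cells (2,100/well) attached overnight, then compound-stimulated 90 min at 37 C in HBSS/10 mM HEPES/0.1% Tween-20 buffer; beta-galactosidase complementation read by luminescence after 1 h at ambient temperature. Dopamine 57 uM final (EC100) as control.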
An asterisk follows results filed as active; ? = inconclusive; nt = no result given; & = joins results of further samples; [ ] = another dose, or the depositor's remark.

SMILES | D2 potentiator | Six1-Eya2 blk | TRPML1 ag | PINK1 modulator | TRPML1 blocker | D2 ag
O=c1c2ccccc2nc2n1C(CSc1ccc(F)cc1)CN2 (stereo not given) | -10.8 | 3.0 | 0.0 | -0.7% | -1.7 | -3.2
Cn1nc(CC(=O)Nc2ccc3c(c2)CCC3)c2ccccc2c1=O | 2.0 | -0.9 | -0.1 | 14.4% | 83.3 | 0.0
COc1cc(/C=N/NC(=O)Cn2cnc3ccccc3c2=O)ccc1O | -1.1 | -2.2 | -0.1 | -1.5% | 5.4 | -0.3
CC(=O)N1CCN(C(=O)c2ccc(Cl)c(S(=O)(=O)N3CCCC3)c2)CC1 | -2.9 | 4.1 | 0.2 | 5.3% | 5.4 | 2.9
CNC(=S)N1CCN(c2nc(-c3ccc(F)cc3)cs2)CC1 | -13.1 | -2.8 | nt | 3.5% | nt | -0.9
CCC(C)c1ccc(NC(=O)CN(C)CC(=O)Nc2cccc(OC)c2)cc1 (stereo not given) | -3.5 | 4.4 | 0.7 | -0.3% | 3.4 | -3.2
Cc1ccc(C(=O)NCC(c2ccc3c(c2)OCO3)N2CCOCC2)cc1C (stereo not given) | nt | nt | -0.5 | -0.3% | -1.1 | nt
CN(c1ccccc1)S(=O)(=O)c1cccc(NC(=O)c2ccc(Cl)c([N+](=O)[O-])c2)c1 | -4.7 | -10.9 | 3.0 | 5.4% | 17.9 | 4.6
Cc1ccnc(SCCn2c(N3CCOCC3)nc3c2c(=O)[nH]c(=O)n3C)n1 | -5.3 | -0.5 | -0.7 | -0.4% | -2.6 | -2.4
O=C1/C(=C/c2ccccc2)SC(=S)N1N1C(=O)C2CC2C1=O (stereo not given) | -0.4 | -2.8 | 1.4 | -0.1% | 8.6 | -1.8

One compound at a time, as listed above. Order of values: D2 potentiator	Six1-Eya2 blk	TRPML1 ag	PINK1 modulator	TRPML1 blocker	D2 ag
Listed for `CC(=O)N1CCN(C(=O)c2ccc(Cl)c(S(=O)(=O)N3CCCC3)c2)CC1` = -2.9	4.1	0.2	5.3%	5.4	2.9
Listed for `CNC(=S)N1CCN(c2nc(-c3ccc(F)cc3)cs2)CC1` = -13.1	-2.8	nt	3.5%	nt	-0.9
Listed for `COc1cc(/C=N/NC(=O)Cn2cnc3ccccc3c2=O)ccc1O` = -1.1	-2.2	-0.1	-1.5%	5.4	-0.3

Following part.
SMILES | D2 potentiator | Six1-Eya2 blk | TRPML1 ag | PINK1 modulator | TRPML1 blocker | D2 ag
COc1ccc(NC(=O)CN(C)C(=O)/C=C/c2ccc(OCc3ccccc3)cc2)cc1 | -1.6 | 6.7 | -1.2 | 7.6% | 10.2 | 1.9
CC(C)c1ccc(C2Sc3ccccc3NC3=C2C(=O)c2ccccc23)cc1 (stereo not given) | nt | nt | 0.0 | 21.2% | -2.3 | nt
CCOC(=O)C1CCCN(C(=O)c2cc(-c3ccco3)nc3ccccc23)C1 (stereo not given) | 20.2 | ? | -0.6 | -1.7% | 12.8 | 6.9
O=C(CO/N=C/c1ccc(OC(F)F)cc1)NC1CCCCC1 | -12.4 | 0.0 | 1.2 | -0.2% | -16.1 | 0.6
CN(C)C(CNC(=O)c1cnc(Cl)c(Cl)c1)c1ccccc1 (stereo not given) | -18.3 | -6.4 | 1.0 | 3.8% | -18.2 | -0.9
O=C(Cn1nc(-c2ccccc2)oc1=O)OCC(=O)c1ccccc1 | -22.1 | 24.6 | -0.2 | 0.3% | -2.3 | -2.5
COc1ccc(CNC(=O)CCC(=O)c2ccc(F)cc2)cc1OC | -6.6 | 0.9 | -0.6 | -0.1% | 3.5 | -2.8
COc1cc(N)c(Cl)cc1C(=O)OCC(=O)N1CCCC1 | -9.3 | -0.6 | 0.3 | 1.4% | 17.9 | -13.4
CCN(CC)C1CCN(C(=O)c2cc(COc3cccc4cccnc34)on2)C1 (stereo not given) | -18.5 | -0.8 | -0.4 | -0.5% | -7.5 | -2.8
COC(=O)C1=C(C)NC(=O)NC1/C=C/c1ccccc1 (stereo not given) | -6.6 | 3.0 | -0.5 | 0.5% | -17.6 | -0.9
Cc1cc(C)c2nc(N3CCN(C(=O)c4cccs4)CC3)sc2c1 | 1.5 | 0.3 | 2.3 | 2.7% | 40.0 | 3.3
COc1ccc(NC(=O)N(C)C[C@H]2Oc3ccc(NC(=O)Cc4ccccc4)cc3CC(=O)N([C@H](C)CO)C[C@H]2C)cc1 | -6.4 | -12.6 | -0.4 | -0.3% | -8.3 | -0.9
c1ccc(N2CCN(CC3CCCCC3)CC2)cc1 | -3.0 | ? | 0.5 | 2.8% | 32.1 | ?
COc1ccccc1Nc1ccc(Nc2ccccc2OC)nn1 | -13.6 | -6.6 | 1.9 | 7.0% | 6.7 | -4.0
O=C(CSc1nnc(Nc2ccccc2F)s1)NC1CCS(=O)(=O)C1 (stereo not given) | -5.7 | 5.6 | -0.5 | 1.0% | -18.9 | -0.3
Cc1nn(C)c(C)c1/C=C/C(=O)c1ccc(Cl)cc1Cl | 1.7 | 3.5 | 2.2 | 3.1% | 32.9 | 4.9
CC(C)(C)n1ncc2c(=O)n(CC(=O)Nc3ccc(Cl)cc3)cnc21 | -17.8 | -0.6 | 0.7 | -1.2% | 50.2 | -3.1
Cc1ccc(N(C)C(=O)CC(C)S(=O)(=O)c2ccc3c(c2)NC(=O)CO3)cc1 (stereo not given) | -7.9 | 4.2 | -0.5&2.6 | -1.5%&-0.6% | -9.6&-25.7 | -0.2
COc1ccc(C2=C(c3ccc(OC)c(OC)c3)CN3CCCCC3C2)cc1 (stereo not given) | -21.3 | -13.0 | -0.2 | 0.3% | 24.2 | -6.7
COC(=O)CSc1nnc(NC(=O)CCc2ccccc2)s1 | -10.6 | 14.0 | -0.4 | 1.9% | 10.4 | -1.8
CN(C(=O)/C=C/c1ccccc1)C1CCS(=O)(=O)C1 (stereo not given) | -14.4 | -1.6 | -1.2 | 4.1% | -2.1 | -4.4
COC(CNC(=O)CCc1c(C)nc2c(-c3ccccc3)c(C)nn2c1C)OC | -1.4 | 2.4 | 0.5 | 1.0% | -1.3 | 3.3
O=C(N/N=C/c1ccccc1)c1ccc2c(c1)OCO2 | 0.2 | 1.2 | -0.1 | 0.2% | -11.9 | -0.4
COc1ccccc1CN1C(=O)CCC1(C)C(=O)NC1CCCCCC1 (stereo not given) | -1.6 | -2.2 | 0.4 | 1.5%[38.3 µM] | -7.8 | -1.1
COc1ccc(OCCCCN2CCC(C)CC2)cc1 | -13.1 | 0.7 | 1.6 | 1.1% | 12.3 | -0.9
O=C(Nc1cc(S(=O)(=O)N2CCCCCC2)ccc1OCC(F)(F)F)C1CCC1 | -24.1 | 6.6 | 0.0 | 15.1% | 0.0 | 3.8
O=C(CC(CC(=O)c1ccccc1)c1ccccc1)c1ccccc1 | -4.9 | 24.2 | 4.4 | 0.7% | 38.4 | -0.5
CCc1nnc2c3ccccc3nc(N3CCN(c4cc(Cl)ccc4C)CC3)n12 | nt | nt | 1.6 | 2.3% | 0.8 | nt
Cc1cc(C(C)(C)C)cc(C)c1N | -20.0 | -5.7 | -0.2 | 4.9% | -21.4 | -13.5
COC(=O)C1=C(N)OC2=C(C(=O)CC(C)(C)C2)C1c1cccnc1 (stereo not given) | -1.2 | 8.7 | -0.1 | -0.1% | -7.0 | -0.9
COC(=O)C1CN(C(=O)C(C)Oc2cccc(C)c2C)c2ccccc2O1 (stereo not given) | -17.2 | 4.9 | 2.6 | -0.8% | 20.8 | 8.7
CCOC(=O)c1noc2ncn(Cc3cccc(C#N)c3)c(=O)c12 | nt | nt | -0.9 | ? | -1.0 | nt
CCc1ccc(NC(=O)Cn2c(=O)n(Cc3ccc(C)cc3)c(=O)c3cccnc32)cc1 | nt | nt | -0.9 | -1.6% | 15.2 | nt
COc1ccc(-n2c(SCC(=O)NC3CCCCC3)nc3ccsc3c2=O)cc1 | -2.3 | -0.3 | -1.1 | -3.9% | -11.7 | 1.2
Cc1ccc(C(=O)C2=C(O)C(=O)N(Cc3cccnc3)C2c2cccc(Oc3ccccc3)c2)o1 (stereo not given) | -4.9 | -20.8 | 1.4 | -0.1% | 4.6 | -3.2
C[C@H](NC(=O)c1nc[nH]c1C(=O)N1CCN(c2ccccc2)CC1)c1ccccc1 | -20.5 | -8.8 | -0.6 | -0.1% | -0.8 | -1.7
O=C(COC(=O)CSc1ccc2ccccc2c1)NC1CCCC1 | -16.6 | -1.5 | -1.0 | 1.3% | 0.4 | -2.8
COCCNC(=O)C1CCCN(C(=O)c2oc3ccccc3c2C)CC1 (stereo not given) | -5.4 | -7.2 | -0.3 | -0.1% | nt | -4.6
CC1(C)Cc2c(sc3ncn4nc(CCC(=O)O)c(=O)nc4c23)CO1 | -20.0 | 5.6 | -0.4 | -0.6% | 10.1 | -0.8
O=C(NCCN1CCCC1)C1COc2ccccc2O1 (stereo not given) | -7.8 | -0.6 | 0.0 | -1.0% | -1.2 | -2.4
CCN1CCN(C(=S)NC(=O)c2cc(OC)c(OC)c(OC)c2)CC1 | -20.8 | 4.5 | 1.1 | 0.2% | 4.8 | -2.5
Cc1nc(-c2ccc(NC(=O)c3ccccc3C)cc2)cs1 | 0.7 | 6.4 | 0.6 | 0.6% | -1.3 | -0.8
N#CNC(=Nc1ccccc1)SCc1ccc(C(=O)O)cc1 | -7.0 | -7.8 | 1.8 | 0.6% | -12.7 | -0.7
CCOC(=O)c1sc(NC(=O)CSc2n[nH]c(C)n2)nc1C | -2.5 | 0.8 | 1.7 | 0.1% | -22.4 | 3.7
Nc1ccc(Oc2ccc3c(c2)OCO3)cc1 | -4.9 | -1.0 | -0.6 | 2.8% | -6.5 | -7.7
CCN(CC)S(=O)(=O)c1ccc(Oc2ccc(S(=O)(=O)N(CC)CC)cc2)cc1 | -3.9 | 7.9 | 3.9 | -1.1%[38.3 µM] | 60.0 | 0.4
Cc1sc2nc3n(c(=O)c2c1C)NC(=O)CC3 | -5.3 | -21.8 | 0.5 | 1.3% | -2.3 | -2.7
Cc1cc(-c2nnc(SCC(=O)c3ccc(Cl)cc3)o2)no1 | -2.4 | 0.8 | 0.6 | 0.5% | 1.2 | -1.2
COc1cc(/C=C/C(=O)OCC(=O)NC2CCS(=O)(=O)C2)ccc1O (stereo not given) | -10.7 | 2.1 | -0.3 | 0.8% | -6.5 | -2.9
Cc1ccc(CNC(=O)C2CCN(S(=O)(=O)c3cc(-c4noc(C)n4)ccc3C)CC2)cc1 | nt | nt | -0.4 | -1.1% | 11.2 | nt

Next results
SMILES | D2 potentiator | Six1-Eya2 blk | TRPML1 ag | PINK1 modulator | TRPML1 blocker | D2 ag
COc1ccc(N2CCN(C(=O)CSc3nc4c(c(=O)n(C)c(=O)n4C)n3C(C)C)CC2)cc1 | 3.7 | 1.4 | 0.5 | nt | 3.9 | -0.6
CC(=O)Nc1ccc(C(=O)NCC2(N3CCCCC3)CCCCC2)cc1 | -7.2 | -8.3 | -0.2 | 2.9% | 3.1 | -5.9
COc1ccc(-c2[nH]ncc2C(=O)NCc2ccc(F)cc2)cc1 | nt | nt | 1.7 | 1.4% | -15.2 | nt
O=C(Nc1ccc(S(=O)(=O)N2CCCC2)cc1)C1CCCN1C(=O)c1cccs1 (stereo not given) | -2.0 | -3.9 | -0.6 | 0.9% | 2.0 | 1.6
